Rango dissoc inh – inhibitors of RanGTP-induced Rango-importin beta complex dissociation. O95149+P62826. Potency, µM (doses to about 46.1 µM), for the others: at the top dose activity change, negative = inhibition. 340,000 compounds, 0.071% hits. Biochemical FRET Rango-importin beta, RanGTP-induced dissociation; active means falling FRET ratio curve, often poorly fitted, with flat reads before Ran was added; inconclusive means other falling curves, or compound fluorescence or quenching; inactive means flat or rising ratio curve;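 further: potency means the concentration at half of the fitted maximal effect; % of control where 0% means no effect; nearly all actives have a fitted effect of over 45% in size; -100% = wells without RanGTP and RCC1; the record marks most hits as doubtful in a second field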
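Recombinant Rango FRET biosensor (EYFP–snurportin 1 IBB–cerulean CFP10) at 0.1 uM premixed with 0.25 uM importin beta in PBS, 1 mM DTT, 0.02% Tween-20, 0.1% BSA. Compound added 5 min; RanGTP-RCC1 (0.6 uM Ran, 2 mM GTP, 0.2 uM RCC1) then triggers release, read at 45 min.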
GLA inh pH 4.5 – alpha-galactosidase A (human) inhibition, pH 4.5 | P06280 | purified enzyme, 4-MU-alpha-Gal fluorescence, pH 4.5 | activity change, negative = inhibition, % at 105 µM | 230,000 tested, under 10 active; inconclusive = small, poorly fitted or top-dose-only inhibition, or a rising curve; inactive = flat fitted curve, though single readings scatter; no compound was filed as active;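 further: 0% = full activity with enzyme and -100% = basal without enzyme; dose as in the result columns while the protocol names 77 µM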
Target sequence (P06280 whole entry, looked up): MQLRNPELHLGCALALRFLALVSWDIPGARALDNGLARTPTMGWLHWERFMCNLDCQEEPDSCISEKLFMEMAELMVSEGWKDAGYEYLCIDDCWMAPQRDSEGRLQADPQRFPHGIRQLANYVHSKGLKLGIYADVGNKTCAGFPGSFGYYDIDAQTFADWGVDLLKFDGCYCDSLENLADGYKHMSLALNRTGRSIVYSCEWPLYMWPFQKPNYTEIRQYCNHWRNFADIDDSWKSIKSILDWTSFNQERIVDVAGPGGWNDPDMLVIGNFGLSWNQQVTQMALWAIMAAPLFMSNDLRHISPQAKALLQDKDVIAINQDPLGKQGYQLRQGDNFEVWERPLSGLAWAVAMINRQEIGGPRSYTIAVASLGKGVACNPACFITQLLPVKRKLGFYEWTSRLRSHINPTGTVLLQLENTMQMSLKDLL
Rango complex inh – inhibitors of Rango-importin beta complex formation | Rango CFP/YFP FRET sensor + importin beta, 45 min | Potency, µM (doses to about 92.2 µM), for the others: at the top dose inhibition of complex formation | 340,000 compounds, 0.031% hits | AID 540263; active = rising FRET ratio curve, often small or poorly fitted; inconclusive = mostly compound fluorescence or quenching in the first reads; inactive = flat curves in all reads;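 further: potency means the concentration at half of the fitted maximal effect; 0% = DMSO wells and 100% = buffer wells lacking importin beta; nearly all actives have a fitted effect of over 15% in size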
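Inhibition scored from the CFP 486 nm/YFP 530 nm FRET ratio 45 min after adding 0.125 microM importin beta to 50 nM Rango biosensor preincubated 5 min with compound (room temperature, PBS with DTT, Tween-20, BSA). No-importin wells as positive control.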
miR-21 reporter – miR-21 reporter, rising signal | HeLa miR-21 FLuc reporter, luciferase, 48 h | Potency, µM (series often up to 38.3 µM), for inactives: top-dose reporter change, positive = more light | 340,000 tested, under 10 active | AID 2288; active = well fitted rising curve with a large enough effect; inconclusive = small, poorly fitted or top-dose-only effect; inactive = no such curve, though single readings can be large or run the other way;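 further: % of control where 0% means no effect; miR-21 action dims this reporter so a rising signal means less miR-21 action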
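Compounds were titrated across several concentrations (up to approximately 40 uM) and incubated 48 hours with HeLa miR-21-FLuc reporter cells (miR-21 target sequence downstream of FLuc, endogenous miR-21). Readout was firefly luciferase luminescence after lytic detection reagent.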
The depositor's hits bear a star; ? = inconclusive; / = not tested or not shown.

GLA inh pH 4.5	miR-21 reporter	Rango complex inh	Rango dissoc inh	compound
3	-57%	?	?	CCn1c2ccc(C)cc2c2nc3cc(C(=O)O)ccc3nc21
/	-42%	-5.2%	1%	COc1c2ccoc2nc2c(OC)cccc12
-10	-9%	-0.4%	-8%	CCOC(=O)C1=NNC(C(=O)c2ccccc2)C1c1ccc(C)cc1 (configuration not stated)
-7	-8%	-0.7%	3%	Cc1ccc([N+](=O)[O-])c(OCCN2CCNCC2)c1
-3	-60%	0.1%	19%	Cc1cc(C)c2nc(NC(=O)C3CCCO3)sc2c1 (configuration not stated)
-2	-1%	-0.6%	2%	Cn1c(SCc2nc(-c3ccccc3)no2)nnc1-c1ccco1
-2	-16%	1.4%	0%	Cc1ccccc1Nc1nc(-c2ccccc2)c(C(=O)Nc2cccnc2)s1
/	-1%	?	-8%	CCn1cc(C(=O)N2CCCC2)c(=O)c2cc(S(=O)(=O)N3CCC(C)CC3)ccc21
-7	-13%	-2.7%	0%	Cc1nn(C)cc1C(=O)NNC(=S)Nc1ccc(Cl)cc1
/	/	7.2%	24%	COc1ccc(NC(=O)Cn2c(C)csc2=O)c(OC)c1
/	/	-0.3%	0%	COc1ccc(F)cc1CN1CCN(C(=O)c2ccc(S(=O)(=O)N3CCCCCC3)cc2)CC1
/	/	-1.0%	-4%	CCn1c(SCC(=O)Nc2ccc(NC(=O)c3ccco3)cc2)nnc1-c1cccs1
-7	-2%	-0.7%	2%	COc1cccc(CN2CCN(C(=O)c3ccc(-c4ccccc4)cc3)CC2)c1OC
5	-4%	7.0%	3%	COc1ccc(-n2c(Cc3cccn3C)nnc2SCC(=O)NC2CCCC2)cc1
/	/	2.2%	25%	O=C(c1ccc(NS(=O)(=O)c2cccc3cccnc23)cc1)N1CCOCC1
-7	-66%	-1.8%	-16%	O=C(NC(=S)Nc1nc2ccccc2s1)c1cccs1
2	-16%	0.7%	-9%	OC(CN1CCN(Cc2ccccc2)CC1)c1ccc(F)cc1 (configuration not stated)
4	-2%	-3.7%	8%	COC(=O)CN1C(=O)COc2ccc(Cl)cc21
/	-17%	0.2%	17%	CCOc1ccccc1NCc1nnc(-c2ccccc2)o1
-25	11%	-1.2%	24%	O=C(NCc1ccco1)C1CCN(c2nc3ccccc3n2Cc2ccccc2F)CC1
-15	-43%	-0.1%	-13%	CCOC(=O)c1ccc(NC(=O)C(CC)CC)cc1
/	-1%	0.9%	-18%	CCCC1(C(=O)OC)NC(c2ccc(OC)cc2OC)C2C(=O)N(c3cccc(C(C)=O)c3)C(=O)C21 (configuration not stated)
/	/	4.0%	-13%	O=C(CSc1nc(=O)n2ccccc2n1)NCc1ccc2c(c1)OCO2
/	-17%	1.6%	-20%	COc1cc(Cl)ccc1OCc1cc(C(=O)N(C)Cc2cn(C)nc2C)no1
4	3%	-3.8%	-23%	O=C(Nc1c(C(=O)NCc2ccco2)cnn1-c1ccccc1)c1cccc(F)c1
/	/	-1.1%	14%	Cc1ccc(N2C(=O)N(CC(=O)Nc3cccc([N+](=O)[O-])c3C)C(=O)C2C)cc1 (configuration not stated)
/	-4%	0.3%	-2%	CC(C)c1ccccc1OCC(=O)Nc1ccc2[nH]ncc2c1
/	7%	-2.0%	-10%	CCC(C(=O)NC1CCCCC1)N(Cc1cccs1)C(=O)CCC(=O)Nc1cc(C)on1 (configuration not stated)
/	-11%	0.4%	0%	CCOC(=O)C1CCN(C(=O)CNC(=O)c2nn(-c3ccc(OC)c(Cl)c3)c(=O)c3ccccc23)CC1
2	-19%	1.9%	-5%	FC(F)(F)c1ccc(Nc2nnnc3ccccc23)cc1
4	-14%	5.7%	0%	CNc1nc2ccccc2n(C)c1=O
10	-5%	0.0%	1%	CC(C)N(CCO)C(=O)C(c1ccccc1)c1ccccc1
/	/	-0.2%	15%	O=C(OCC(=O)N1CCOCC1)c1cc2ccccc2oc1=O
/	-5%	-0.8%	28%	COc1ccccc1-c1sc2ccccc2c1-c1ccc2c(c1)OCO2
0	-34%	-0.4%	-2%	Cc1ccc(-c2nn(C(C)(C)C)c3ncnc(N)c23)cc1
-5	-44%	3.7%	0%	Cc1c(O)ccc(-c2n[nH]c(C(=O)O)c2-c2nc3ccccc3s2)c1O
/	-3%	0.0%	14%	COc1cc2c(cc1OC)CN(C(=O)C(CCSC)NS(=O)(=O)c1ccc(C)cc1)CC2 (configuration not stated)
7	-5%	1.6%	1%	CC(C)CNC(=O)NC(=O)COc1ncnc2sccc12
/	-40%	-1.0%	0%	COc1ccc(CNC(=O)N2CCc3ccccc3C2)cc1
-2	-10%	-3.0%	65%	CC(=O)CCc1oc2c([N+](=O)[O-])cccc2c1-c1ccc(C)o1
/	-3%	?	?	Cc1ccc(S(=O)(=O)c2cc3c(=O)n4ccccc4nc3n(CCCN3CCOCC3)c2=N)cc1C
0	-6%	-0.2%	8%	Cc1ccc(C)c(NC(=S)N(CCc2ccncc2)C(C)C)c1
6	1%	4.1%	-13%	CCc1nc(SCC(=O)NNC(=O)C(C)C)c2ccccc2n1
/	8%	3.1%	1%	Cc1cc(C(C)(C)C)cc(C)c1COC(=O)c1cccnc1
/	-1%	1.8%	-4%	Nc1nonc1-n1nnc(C(=O)N/N=C/c2cccc(F)c2)c1-c1ccccc1
/	0%	-6.5%	-2%	O=C(O)c1ccc2c(c1)C(=O)N(Cc1ccco1)C2=O
/	-17%	1.8%	-4%	O=C(CSc1ncnc2c1cnn2-c1ccc(F)cc1)NC1CCCC1
4	21%	-1.7%	-7%	O=C(CCCSc1nc2ccccc2s1)NC1=NCCS1
/	/	5.4%	-14%	O=C(NN1C(=O)NC2(CCCCC2)C1=O)c1cc2cc(Cl)ccc2o1
2	0%	-2.3%	10%	Cc1ccc(NC(=O)CN2C(=O)COc3ccc(C)cc32)nc1
/	3%	-0.4%	8%	CCC(C)C(=O)Nc1nnc(SCC(=O)NC2CCCC2)s1 (configuration not stated)
4	-1%	?	-19%	CCOC(=O)C1(Cc2ccccc2)CCCN(C2CCN(C(C)=O)CC2)C1 (configuration not stated)
-14	-3%	?	-14%	C=C(C)CNC(=S)N/N=C(\C)c1cccc(NC(C)=O)c1
-1	1%	0.6%	-17%	CC(=O)C(/C=N/c1ncc(C(F)(F)F)cc1Cl)=C(\C)O
-7	0%	0.0%	1%	CCC(C)[C@H](NC(=O)Nc1ccc(C)cc1C)C(=O)O (some centres not stated)
/	0%	1.5%	-4%	COc1ccc(/C=C(/NC(=O)c2ccccc2)C(=O)NCCCn2ccnc2)cc1OC
1	-1%	-0.9%	0%	CCOC(=O)c1nnc(-c2ccccc2)nc1N1CC(C)OC(C)C1 (configuration not stated)
6	-2%	-0.4%	-3%	Cc1[nH]nc2c1C1(C(=O)Nc3ccc([N+](=O)[O-])cc31)C(C#N)=C(N)O2 (configuration not stated)
/	/	-0.4%	-1%	COc1ccc(CC(=O)N(C)Cc2cccc(OC)c2OC)cc1S(=O)(=O)N1CCOCC1
-1	-3%	6.3%	3%	COc1ccc(/C=C(/NC(C)=O)C(=O)O)cc1

(further entries)
GLA inh pH 4.5	miR-21 reporter	Rango complex inh	Rango dissoc inh	compound
3	0%	-0.5%	1%	O=C(C1CCN(C2CCN(C/C=C/c3ccccc3)CC2)CC1)N1CCOCC1
8	0%	-1.3%	-7%	COc1ccc(C(=O)CSc2nnc(CC(=O)Nc3ccccc3OC)n2C)cc1
/	-6%	0.2%	-1%	CC1(c2ccccc2)NC(=O)N(CC(=O)Nc2ccc(S(N)(=O)=O)cc2)C1=O (configuration not stated)
/	-3%	1.0%	1%	CN(Cc1ccccc1)C(=O)c1ccc(NC2=NC3CS(=O)(=O)CC3S2)cc1 (configuration not stated)
/	/	-0.5%	10%	CCOC(=O)c1ccc(NC(=S)Nc2ccc(Br)cc2N)cc1
-1	-47%	-0.9%	1%	COc1ccc(C/C(C)=N/NS(=O)(=O)c2ccc(Br)cc2)cc1
/	/	0.5%	5%	O=C(CSc1ncccn1)Nc1cccc(S(=O)(=O)N2CCOCC2)c1
5	-4%	4.1%	13%	CCOCc1nnc(NC(=O)c2cc(OC)c(OC)cc2[N+](=O)[O-])s1
1	-37%	0.1%	0%	Cc1ccc(C(=O)N2CCN(c3ccccc3)CC2)cc1C
/	10%	-3.7%	-14%	COCCNC(=O)CN(Cc1ccc(OC)cc1)C(=O)CCC(=O)Nc1nccs1
/	1%	-2.5%	7%	COc1ccc(C)cc1NC(=O)NC1CCCc2ccccc21 (configuration not stated)
/	1%	-1.6%	-13%	COC(=O)c1cc(OC)c(OC)cc1NC(=O)c1csc(C)c1

Random excerpt: 3 records from the list
GLA inh pH 4.5	miR-21 reporter	Rango complex inh	Rango dissoc inh	compound
/	-6%	0.2%	-1%	CC1(c2ccccc2)NC(=O)N(CC(=O)Nc2ccc(S(N)(=O)=O)cc2)C1=O (configuration not stated)
/	/	-0.5%	10%	CCOC(=O)c1ccc(NC(=S)Nc2ccc(Br)cc2N)cc1
/	10%	-3.7%	-14%	COCCNC(=O)CN(Cc1ccc(OC)cc1)C(=O)CCC(=O)Nc1nccs1

Single records, as listed above. Order of values: GLA inh pH 4.5, miR-21 reporter, Rango complex inh, Rango dissoc inh
Listed for CNc1nc2ccccc2n(C)c1=O : 4, -14%, 5.7%, 0%
Listed for Cc1ccc(S(=O)(=O)c2cc3c(=O)n4ccccc4nc3n(CCCN3CCOCC3)c2=N)cc1C : /, -3%, ?, ?

New compounds follow:
GLA inh pH 4.5	miR-21 reporter	Rango complex inh	Rango dissoc inh	compound
0	-2%	-0.3%	10%	COc1ccc(-c2cnnc(N/N=C/c3ccc(C)o3)n2)cc1
/	-7%	4.6%	-10%	CCOc1ccc(CCNC(=O)CSc2n[nH]c(N)n2)cc1OCC
-4	1%	0.2%	-4%	CCOC(=O)N1CCC(N2CCN(S(=O)(=O)c3ccc(C)cc3)CC2)CC1
/	-4%	-1.1%	9%	O=C(N/N=C/c1ccc(O)cc1)c1cc(C2CC2)[nH]n1
/	10%	-0.6%	17%	COc1ccc(Cl)cc1NC(=O)C1Cc2cc(S(=O)(=O)N3CCCC3)ccc2N1C(C)=O (configuration not stated)
-1	9%	-2.1%	0%	COC(=O)CCSCC(=O)Nc1ccc(C)c(S(=O)(=O)N2CCCCC2)c1
0	-1%	0.4%	-5%	Cc1cccc(CN2CCCC(C(=O)N3CCc4ccccc4C3)C2)c1 (configuration not stated)
/	-2%	3.6%	3%	Cc1nn(CC(=O)Nc2c(F)c(F)cc(F)c2F)c(=O)c2cccn12
/	/	-3.3%	-14%	O=C(Cc1ccc([N+](=O)[O-])cc1)Nc1cccc(C(=O)N2CCCCC2)c1
-18	-3%	3.3%	-5%	Cc1cc(C)c(C#N)c(=N)o1
8	0%	-0.1%	-11%	Cc1cccc(C)c1NC(=O)CSC(=S)N1CCCC1
6	0%	-0.4%	-7%	N#CC(c1ccccc1)c1cccc(Cl)n1 (configuration not stated)
4	-1%	-0.4%	-15%	Cc1ccc(-c2cc(C(=O)NCCCn3ccnc3)c3cc(Br)ccc3n2)o1
-5	-4%	-3.1%	-1%	Brc1ccccc1CN1CCC(N2CCCCC2)CC1
7	-10%	13%	25%	Cn1c(NC(=O)CC2CCCCC2)cc(=O)n(C)c1=O
-1	-18%	?	?	N#Cc1c(NCCO)nc(NCc2ccccc2)c2c1CCN(Cc1ccccc1)C2
-1	-7%	/	/	CC1(C)Cn2c(nc(=O)c3c2NCN(CCc2ccccc2)C3)S1
1	1%	-2.6%	1%	CCNc1c([N+](=O)[O-])c(=O)n(CC)c2ccccc12
-8	-2%	2.6%	-6%	Cc1cnc(NC(=O)CSc2nnc(-c3cccs3)n2C)s1
5	20%	2.3%	?	COc1cc(C(=S)N2CCN(c3ccccc3Cl)CC2)cc(O)c1O

Screens: PubChem BioAssay, National Center for Advancing Translational Sciences (NCATS)

Not all compounds are listed (hit frequency here may not be typical).
